High-throughput results (PubChem)
VDR inhibitor: blocks the human vitamin D receptor | VDR-SRC2-3 peptide fluorescence polarization, 2 h | Potency, µM, without a hit: max response, negative = inhibition, usual class: inhibitors | 400,000 compounds, 0.93% hits | AID 504847; active = well fitted inhibition curve with a large enough effect; inconclusive = small, poorly fitted or top-dose-only effect, or another doubt; inactive = no such curve, though single readings can be large or run the other way; note: series mostly up to about 120 µM
Target sequence (P11473 whole entry, looked up): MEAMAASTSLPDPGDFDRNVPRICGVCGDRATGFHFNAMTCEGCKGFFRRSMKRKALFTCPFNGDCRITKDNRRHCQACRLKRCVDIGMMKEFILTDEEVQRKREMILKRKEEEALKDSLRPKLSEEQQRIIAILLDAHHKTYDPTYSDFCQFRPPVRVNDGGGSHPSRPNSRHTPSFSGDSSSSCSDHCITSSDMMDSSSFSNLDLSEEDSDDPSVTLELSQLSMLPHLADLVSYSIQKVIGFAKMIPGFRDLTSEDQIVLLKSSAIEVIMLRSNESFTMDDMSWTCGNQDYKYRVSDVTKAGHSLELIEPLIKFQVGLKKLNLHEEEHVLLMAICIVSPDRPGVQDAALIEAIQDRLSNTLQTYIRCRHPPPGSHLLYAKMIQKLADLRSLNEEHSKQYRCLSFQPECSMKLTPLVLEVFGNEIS
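Inhibition of the VDR/SRC2-3 peptide interaction is quantified by fluorescence polarization. Compounds (23 nl, pintool) incubate with the reagents for 2 hours at ambient room temperature.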
* marks the source's active call; other numbers are inactive results; ? = inconclusive; & = joins results of further samples. % is set by controls: 0 for no effect and ±100 for the full control effect; potency is the fitted concentration of half-maximal effect.

compound,VDR inhibitor
CCn1c(C(=O)NCc2cc(Br)ccc2OC)cc2oc3ccccc3c21,-17.4%
CCOc1ccccc1N(CC(=O)NC1CCCCC1)C(=O)CCCC(=O)Nc1ccccn1,-8.0%
C/C(=N\NS(=O)(=O)c1ccccc1)c1ccc2c(c1)OCO2,-8.3%
Cc1nc2ccc(-c3ccccc3)cc2o1,-13.9%
CCCCN(C(=O)c1cccc(C)c1)c1c(N)n(CCC)c(=O)[nH]c1=O,-3.0%
CNS(=O)(=O)c1cn(CC(=O)NCc2ccc(N(C)C)cc2)cc1S(=O)(=O)NC,-7.2%
CCOC(=O)c1cnc2ccc(C)cc2c1Nc1ccc(N2CCOCC2)cc1,2.3%
CCOc1c(Cl)cc(C(=O)N(Cc2ccc(N(C)C)cc2)Cc2ccco2)cc1Cl,14.0%
COc1ccccc1NC(=O)CN1C(=O)CSC(C)C1=O (stereo not drawn),0.9%
COc1ccc(NC(=O)c2ccc(OCC3CCCO3)cc2)cc1OC (stereo not drawn),0.8%
C[C@@H]1CCC(=O)N(CC[C@H](Oc2ccccc2)c2ccccc2)CC1,0.9%
COc1ccc(-c2n[nH]c(=S)n2-c2ccccc2C)cc1OC,-0.6%
COc1ccc(N2CCN(C(=O)c3ccc(CNS(=O)(=O)c4ccc(C)cc4)cc3)CC2)cc1,5.7%
Cc1ccc(C)c(OCCC(=O)OCC(=O)Nc2cccnc2Cl)c1,-1.2%
CCOc1ccc(C(=O)c2cn(CC(=O)Nc3cc(OC)ccc3OC)c3cc(OC)c(OC)cc3c2=O)cc1,-16.8%
O=C(O)/C=C/C(=O)N1N=C(c2ccco2)CC1c1ccco1 (stereo not drawn),-13.0%
O=C(Nc1cccc(-c2cn3ccccc3n2)c1)c1cnccn1,-20.1%
Cc1cccc2sc(N(CCCN(C)C)C(=O)c3ccc(S(=O)(=O)N4CCc5ccccc5C4)cc3)nc12,-22.1%
NC(=O)OCC(O)COc1ccc(Cl)cc1 (stereo not drawn),-13.9%
CCn1ccnc1CN1CCCC(CO)(Cc2cccc(OC)c2)C1 (stereo not drawn),-14.9%
O=S(=O)(c1ccccc1)c1nc(-c2cccs2)oc1N1CCCCC1,-1.1%
CCOc1ccc(-n2nc3ccc(NC(=O)c4ccc(-c5cccc(Cl)c5)o4)cc3n2)cc1,-17.9%
CCCn1nnnc1NCc1cccc(OC)c1OCC,6.6%
COc1ccc(NC2CCCN(C(=O)CSc3ccccc3)C2)cc1 (stereo not drawn),-7.5%
O=C(Nc1ccc(-c2ccccc2)cc1)c1ccccc1,-12.2%

Gathered by group, the compounds so far with two or more sulfur atoms.
compound,VDR inhibitor
CNS(=O)(=O)c1cn(CC(=O)NCc2ccc(N(C)C)cc2)cc1S(=O)(=O)NC,-7.2%
Cc1cccc2sc(N(CCCN(C)C)C(=O)c3ccc(S(=O)(=O)N4CCc5ccccc5C4)cc3)nc12,-22.1%
O=S(=O)(c1ccccc1)c1nc(-c2cccs2)oc1N1CCCCC1,-1.1%

Additional records.
compound,VDR inhibitor
O=C(C[n+]1ccccc1)N/N=C/c1ccccc1Cl,11.9%
O=C(Nn1cnc2ccccc2c1=O)c1ccccc1,-11.8%
CCn1c(SCC(=O)Nc2nnc(C)s2)nnc1C(C)NC(=O)c1ccccc1 (stereo not drawn),0.7%
COc1ccc(-c2nnc(NC(=O)c3ccc(S(=O)(=O)N4CCCc5ccccc54)cc3)o2)cc1,-8.0%
CSCc1cc(N2CCCC2)nc(-c2ccccc2)n1,-14.9%
O=C(Nc1ccc(NC(=O)C2CC2)nc1)c1cccnc1,-15.3%
CC(=O)Nc1ccc(OCC(O)CNC2CCCC2)cc1 (stereo not drawn),?
Cn1c(=O)oc2cc(S(=O)(=O)NCCc3ccccc3)ccc21,21.0%
CCSC(=Nc1ccccc1)C1=C(O)COC1=O,11.6%
COc1ccc(C(=O)CN2C(=O)c3ccccc3C2=O)c(OC)c1C,11.0%
Cc1ccc(Cl)cc1NC(=O)CN1CCOCC1,-14.1%
C=C(C)Cn1c(-c2cccc([N+](=O)[O-])c2)n[nH]c1=S,-5.7%
COc1cc(C(=O)NNC(=O)CSc2nnc3ccccn23)cc(OC)c1OC,0.8%
COc1ccc(Cl)c(NC(=O)NCCN2CCN(c3ccccc3)CC2)c1,14.2%
Cc1ccccc1C(=O)Nc1ccc(C(=O)N/N=C/c2ccc(O)c(Br)c2)cc1,-4.9%
CCN(CC)c1ncnc2ccc(Br)cc12,5.0%
CC(C)(C)c1cc(CN2CCN(CCC#N)CC2)cc(C(C)(C)C)c1O,-0.6%
O=C(CN1C(=O)CSC1=O)Nc1ccccc1F,9.6%
COc1ccccc1/C=C1\SC(=S)N(CCC(=O)NCCc2ccc(O)cc2)C1=O,6.9%
Cn1cnc(S(=O)(=O)N2CCN(c3cccc(C(F)(F)F)c3)CC2)c1,-15.9%
CNc1nc(N)c([N+](=O)[O-])c(NCCO)n1,16.5%
CCOC(=O)c1ccc(NC(=O)COc2ccccc2CNCCc2ccccc2)cc1,-11.6%
CCOC(=O)c1cnc(NCc2ccccc2OC)c2ccccc12,3.5%
COc1ccc(-c2ccc(-c3nnn(CC(=O)N4CCOCC4)n3)cc2)cc1,15.9%
CC1CCCN(C(C(=O)Nc2ccc3c(c2)OCCO3)c2ccccc2)C1 (stereo not drawn),-0.6%

New compounds follow
compound,VDR inhibitor
COc1ccccc1N1CCN(C(=O)C(Sc2ccccc2)c2ccccc2)CC1 (stereo not drawn),-18.3%
O=C(COc1ccccc1-c1ccccc1)NNC(=O)NC1CCCCC1,-5.8%
O=[N+]([O-])c1cc2c(cc1CN1CCN(c3ccc(F)cc3)CC1)OCO2,-19.5%
CCOC(=O)N1CCN(C(=O)CSCc2nc(-c3ccccc3C)oc2C)CC1,-11.1%
COc1ccc(/C(C)=N/NC(=O)c2sccc2-n2cccc2)cc1,-11.8%
COc1ccc(C(NC(=O)c2cc(OC)ccc2OC)c2ccccc2)cc1 (stereo not drawn),-1.1%
O=C(NCCc1ccccn1)c1c(-c2ccccc2)sc2ccccc12,-23.4%
Cc1ccc(N2CCN(CC3CC=CCC3)CC2)cc1 (stereo not drawn),-14.0%
CSc1cccc(NC(=O)Nc2nc3c(C)cccc3s2)c1,6.5%
COc1ccc(NC(=O)c2cc(-c3ccco3)nc3ccccc23)cc1,10.4%
COc1ccc(NC(=S)NCc2ccc(S(N)(=O)=O)cc2)c(OC)c1,-13.5%
COc1ccc(CNc2cc(NCCCO)c([N+](=O)[O-])c3nonc23)cc1,0.8%
COc1cc(/C=C2/C(=O)NN(c3ccc(Cl)cc3)C2=O)cc(Br)c1O,70.8µM*
CN(C)CCN(C(=O)c1ccc2c(c1)OCCO2)c1nc2cc3c(cc2s1)OCO3,-5.9%
COc1ccc(OCCC(=O)c2ccc(OC)cc2)cc1,7.0%
CCn1c(SCC(=O)N2CCOCC2)nc2sc3c(c2c1=O)CCCC3,7.4%
CCc1ccc(NC(=O)N2CCC(N3CCN(Cc4ccc(C)cc4)C(=O)C3=O)CC2)cc1,12.0%
Cc1nn(-c2ccccn2)c2nc(-c3cccs3)cc(C(=O)N3CCOCC3)c12,?
Cc1c(C)n2c(SCC(=O)Nc3cccc4ccccc34)nnc2[nH]c1=O,3.2%
O=C(Nc1ccccc1-c1ccccc1)c1cc(C(F)(F)F)cc(C(F)(F)F)c1,-4.7%
Cc1cc2[nH]c(=O)c(=O)[nH]c2cc1S(=O)(=O)NCc1ccccc1,-10.9%
Cc1ccccc1C(=O)Nc1ccccn1,-2.4%
CCOc1ccccc1C(=O)N(Cc1ccco1)Cc1ccccc1F,5.1%
Cc1ccc(N2CCN(C(=O)c3cnn(-c4ccc(C)c(C)c4)c3C3CCNCC3)CC2)c(C)c1,1.5%
CCn1cnc2cc(NCc3cccs3)ccc21,0.1%

(listing goes on)
compound,VDR inhibitor
COc1cccc(OC)c1C(=O)Nc1cccc(-c2ccc(N3CCOCC3)nn2)c1,24.7%
CCOC(=O)N1CCN(C(=O)CSCc2ccccc2Cl)CC1,6.2%
CCOC(=O)N1CCN(S(=O)(=O)c2ccc(C(=O)NNc3nc4c(C)cc(C)cc4s3)cc2)CC1,5.7%
O=C(Cn1nc2c(cc1=O)CCCC2)NCc1ccccc1,4.0%
CCCN(CCC)C(=O)C1CCN(c2cc(C)nc3c(-c4ccc(Cl)cc4)c(C)nn23)CC1,-8.6%
COc1ccc(NS(=O)(=O)c2cc(NC(=O)c3cnccn3)ccc2N2CCCC2)cc1,?
CC1Sc2ccc(C(=O)NCc3ccccc3Cl)cc2NC1=O (stereo not drawn),-1.3%
S=C(Nc1ccccc1)Nc1nc2ccccc2n1CCOc1ccccc1,-18.0%
COc1ccc(NC(=O)c2ccco2)cn1,-13.3%
O=C(CCCN1C(=O)c2ccccc2C1=O)Nc1ccc(S(=O)(=O)N2CCCCC2)cc1,-7.1%
COc1ccc(N(C(=O)c2ccccc2C)S(=O)(=O)c2ccc(Cl)cc2)cc1,10.4%
c1ccc(CCSc2nccn2-c2ccccc2)cc1,-7.3%
CCOc1ccccc1CNS(=O)(=O)c1cnc(N)nc1,4.8%
Cc1nc(-c2cc(C#N)c(=O)[nH]c2C)cs1,3.1%
C=C/C1=C/Cc2ccccc2[C@H](C[N+](=O)[O-])C(C(C)=O)(C(=O)OC)C1 (stereo partly drawn),-5.1%&13.1%
O=c1c2ccccc2n(Cc2cccc(Cl)c2)c(=O)n1Cc1ccccc1,8.0%
CCCCn1c(N)c(N(CC)C(=O)CSCC(=O)Nc2ccc(OC)cc2)c(=O)[nH]c1=O,-14.0%
COc1cc(C2=NOC(C(=O)NC3CCCCC3)C2)cc(OC)c1OC (stereo not drawn),-11.1%
CCCNc1ccc(-c2nc(-c3ccco3)no2)cc1[N+](=O)[O-],-3.2%
CCCCCCCCOc1ccc(C2CC(=O)NC2=O)cc1 (stereo not drawn),-15.6%
Cc1cc(C(=O)OCC(=O)NCc2ccco2)c(C)n1-c1ccc(F)cc1,-5.6%
COc1ccc(-c2cc(C(=O)N3CCCCC3)c3ccccc3n2)cc1OC,4.4%
N#Cc1ccccc1NS(=O)(=O)c1ccc(N2CCCCS2(=O)=O)cc1,15.9%
COc1ccc(OC)c(NC(=O)Cn2ccn(-c3ccc(F)cc3)c(=O)c2=O)c1,12.9%
Cc1ccc(NC(=O)C2CCCN(S(=O)(=O)c3c(C)noc3C)C2)c(Br)c1 (stereo not drawn),26.7%

The results go on.
compound,VDR inhibitor
CCN(C(=O)COC(=O)CNC(=O)c1ccc(F)cc1)C1CCS(=O)(=O)C1 (stereo not drawn),-1.7%
Cc1cccc(-n2c(C)cc(/C=N/NC(=O)c3ccc(CN4CCOCC4)cc3)c2C)c1,-10.4%
Cc1cccc(CNC(=O)C(=O)Nc2ccccc2C)c1,0.8%
CCOC(=O)C1C(=O)C=C(Nc2ccccc2F)CC1c1ccccc1 (stereo not drawn),-25.0%
Cc1ccc(-c2nnn(CC(=O)N3c4ccccc4CCc4ccccc43)n2)cc1,18.9%
COc1ccccc1CNC(=O)CCc1c(C)nc2c(c(C)nn2-c2ccc(C)c(C)c2)c1C,1.5%
CN(CC(=O)Nc1ccc(F)cc1)C(=O)c1ccc(OCc2cn3ccccc3n2)cc1,17.7%
CCc1ccc(Cn2nnc(C(=O)Nc3ccc(C)cc3)c2N)cc1,-9.2%
COCCC(=O)Nc1ccc2c(c1)CN(C(=O)CCSC)CC2,11.3%
CCN1CC(CN(C)Cc2cn(-c3cccc(C)c3)nc2-c2cccc(F)c2)CC1=O (stereo not drawn),-18.6%
CC(C)(C)NC(=O)CN(C(=O)c1snc(C(=O)NC2CCCCC2)c1N)c1ccccc1F,15.2%
Cc1nn(-c2ccccc2)c2c1C1(C(=O)N(C)c3ccccc31)C(C#N)=C(N)O2 (stereo not drawn),-7.6%
Cc1cccc(Cc2c(C)nc3nc(SCC(=O)NCc4ccccc4)nn3c2C)c1,-8.9%
O=C(OC(C(=O)Nc1cc(Cl)cc(Cl)c1)c1ccccc1)C1=COCCO1 (stereo not drawn),9.1%
O=C(O)c1ccc(N/N=C/c2ccncc2)cc1,1.5%
O=C(NCCN1CCOCC1)c1ccc2c(c1)N(Cc1ccc(F)cc1)C(=O)CS2,-3.2%
CCOC(=O)N1CCN(C(=O)c2cn(CC)c3ccc(S(=O)(=O)N(C)C4CCCCC4)cc3c2=O)CC1,0.6%
O=C(CSc1nc2c(cnn2-c2ccc(F)cc2)c(=O)[nH]1)N1CCCCCC1,6.4%
C/C(=N\NC(=O)c1cc(O)ccc1O)c1cccc(NC(=O)c2cccc(Cl)c2)c1,-12.8%
C[C@@H]1C(=O)O[C@H]2CC34[C@H]5C[C@@H](C(C)(C)C)[C@]36[C@@H](OC(=O)[C@@H]6O)O[C@@]4(C(=O)O5)[C@]21O (stereo partly drawn),5.1%
NC(=O)COc1ccccc1,-17.4%
Nc1nc(SCC(=O)Nc2ccc([N+](=O)[O-])cc2)n[nH]1,8.4%
c1ccc2c(N3CCCCC3)nc(N3CCCCC3)nc2c1,17.7%
O=C(c1cnccn1)N1CCC2(CC1)CCN(c1ncccn1)CC2,-3.9%
CNc1ccccc1-n1ccc(-c2ccccc2)n1,-11.6%
O=C(C1CCN(Cc2ccc(Cl)cc2)CC1)N1CCN(C(c2ccccc2)c2ccccc2)CC1,-23.7%

Not all compounds are listed; count on the stated rates, not on these rows.
